Screening results deposited in PubChem BioAssay by The Scripps Research Institute Molecular Screening Center.
OX1R antag-1: OX1R (human) antagonism; AID 485270; OX1R-expressing cells, FRET antagonist read-out; actives 1.8% (n = 330,000); O43613; inhibition, % at 6.6 µM; in the data active means inhibition mostly above about 38%, no sharp cut-off; inactive means mostly below about 40%;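 further: 0% = agonist challenge alone and 100% = reference antagonist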
Target sequence (O43613 whole entry, looked up): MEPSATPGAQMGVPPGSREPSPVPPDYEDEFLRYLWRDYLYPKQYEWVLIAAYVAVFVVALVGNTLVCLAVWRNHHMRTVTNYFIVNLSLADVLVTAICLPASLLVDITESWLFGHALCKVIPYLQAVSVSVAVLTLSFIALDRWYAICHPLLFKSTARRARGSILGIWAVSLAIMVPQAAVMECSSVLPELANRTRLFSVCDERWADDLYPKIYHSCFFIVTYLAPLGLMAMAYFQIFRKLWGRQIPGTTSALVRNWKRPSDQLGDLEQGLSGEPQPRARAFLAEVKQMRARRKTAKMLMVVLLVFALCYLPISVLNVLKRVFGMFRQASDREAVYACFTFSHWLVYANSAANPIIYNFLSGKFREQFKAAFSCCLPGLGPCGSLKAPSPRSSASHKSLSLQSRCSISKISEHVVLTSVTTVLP
OX1R antag-2: human HCRTR1 antagonism; O43613; CHO/OX1R cells, Fluo-8 calcium fluorescence, orexin A; inhibition, % at 5 µM; actives 0.43% (n = 330,000); AID 434989;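 active means inhibition above its plate's threshold, mean inhibition of all tested compounds on the plate plus 3 SD, cut at about 37% in these data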;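 further: 0% = orexin A challenge wells and 100% = SB-334867-A antagonist wells; not every result past the cut was called active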
An asterisk follows results filed as active.

SMILES	OX1R antag-1	OX1R antag-2
COCCCn1c(C(=O)NCCC2=CCCCC2)cc2c(=O)n3ccccc3nc21	3	-9
COc1ccc(-c2nc3ccccc3c(=O)n2CCc2ccc(O)cc2)cc1	2	-4
Cc1ccc(NC(=S)NCCc2ccc(S(N)(=O)=O)cc2)c(C)c1	-1	-14
CCN(CC)S(=O)(=O)c1ccc(Cl)c(NC(=O)COc2ccccc2[N+](=O)[O-])c1	8	-30
COc1ccc(NC(=O)COCC(=O)Nc2ccc(C)cc2)cc1	-3	-6
O=C(Nc1ccccc1O)c1cc(S(=O)(=O)N2CCOCC2)c(Cl)cc1Cl	9	-32
Cc1ccccc1C(=O)NC1CCN(CC(=O)N2CCCCC2C)CC1 (stereo not drawn)	12	-4
CCOC(=O)c1[nH]c2ccc(C)cc2c1N=CN(CC)CC	14	-15
CCOC(=O)/C(=N\Nc1ccccc1[N+](=O)[O-])c1csc(N)n1	14	-18
CCC(C(=O)N1CCN(S(=O)(=O)c2ccc(F)cc2)CC1)c1ccccc1 (stereo not drawn)	5	-18
Cc1ccc(C(=O)Nc2nnc(-c3ccc(C(C)(C)C)cc3)s2)cc1	18	-3
COc1ccc(Cl)cc1C(=O)NC(C)C	2	1
O=C(CN1CCN(S(=O)(=O)c2ccc(Cl)cc2)CC1)NC1CCCC1	0	-10
Cc1ccc(-n2c(SCC(=O)Nc3ccc(C(=O)O)cc3)nnc2-c2ccncc2)cc1	10	3
CN1CCN(NC(=O)c2ccc(Cl)s2)CC1	-9	8
Cc1cccc(NC2=NC(=S)N(c3cccc(C(=O)O)c3)C23CCCCC3)c1	7	8
Cc1nn(Cc2cccc(C(=O)NC34CC5CC(CC(C5)C3)C4)c2)c(C)c1Br	14	-12
O=C1CN(S(=O)(=O)c2cc(Cl)ccc2Cl)c2ccccc2N1	26	-18
O=C(O)CC1=C(O)C(=O)N(c2ccccc2)C1c1ccccc1 (stereo not drawn)	22	-1
OC(CSc1c(Cl)cccc1Cl)CN1CCN(c2ccccc2F)CC1 (stereo not drawn)	-4	-33
COCCn1c(SCCN2CCOCC2)nc2c1c(=O)[nH]c(=O)n2C	3	1
COc1ccc([C@@H]2[C@@H]3C(=O)N(C(C)(C)C)C(=O)[C@@H]3[C@]3(Cc4ccc(Cl)cc4)C(=O)N(c4cccc(C)c4)C(=O)N23)cc1	20	-30
Cc1cc(=O)[nH]c(SCC(=O)Nc2nnc(SCc3ccccc3)s2)n1	50	-5
CCS(=O)(=O)N1Cc2ccccc2CC1C(=O)Nc1nnc(SCc2c(Cl)cccc2Cl)s1 (stereo not drawn)	4	-13
COC(=O)c1ccc(NC(=S)NCCCn2ccnc2)cc1	10	-11
Cc1ccoc1C(=O)NCCCNC(=O)c1occc1C	12	-3
Cc1ccc(-c2nnc(NCCCO)c3ccccc23)cc1	1	-50
Cc1ccc(C(=O)N2CCOCC2)cc1Cl	25	-2
CC(Sc1n[nH]c(-c2cccs2)n1)C(=O)Nc1ccc(C(N)=O)cc1 (stereo not drawn)	3	-16
COC(=O)/C(=C1\Oc2ccc(C(C)(C)C)cc2S1)C(F)(F)F	9	-3

Laid out differently: 22 of the compounds above.
OX1R antag-1,OX1R antag-2,Molecule
14,-18,CCOC(=O)/C(=N\Nc1ccccc1[N+](=O)[O-])c1csc(N)n1
5,-18,CCC(C(=O)N1CCN(S(=O)(=O)c2ccc(F)cc2)CC1)c1ccccc1 (stereo not drawn)
18,-3,Cc1ccc(C(=O)Nc2nnc(-c3ccc(C(C)(C)C)cc3)s2)cc1
2,1,COc1ccc(Cl)cc1C(=O)NC(C)C
0,-10,O=C(CN1CCN(S(=O)(=O)c2ccc(Cl)cc2)CC1)NC1CCCC1
10,3,Cc1ccc(-n2c(SCC(=O)Nc3ccc(C(=O)O)cc3)nnc2-c2ccncc2)cc1
-9,8,CN1CCN(NC(=O)c2ccc(Cl)s2)CC1
7,8,Cc1cccc(NC2=NC(=S)N(c3cccc(C(=O)O)c3)C23CCCCC3)c1
14,-12,Cc1nn(Cc2cccc(C(=O)NC34CC5CC(CC(C5)C3)C4)c2)c(C)c1Br
26,-18,O=C1CN(S(=O)(=O)c2cc(Cl)ccc2Cl)c2ccccc2N1
22,-1,O=C(O)CC1=C(O)C(=O)N(c2ccccc2)C1c1ccccc1 (stereo not drawn)
-4,-33,OC(CSc1c(Cl)cccc1Cl)CN1CCN(c2ccccc2F)CC1 (stereo not drawn)
3,1,COCCn1c(SCCN2CCOCC2)nc2c1c(=O)[nH]c(=O)n2C
20,-30,COc1ccc([C@@H]2[C@@H]3C(=O)N(C(C)(C)C)C(=O)[C@@H]3[C@]3(Cc4ccc(Cl)cc4)C(=O)N(c4cccc(C)c4)C(=O)N23)cc1
50,-5,Cc1cc(=O)[nH]c(SCC(=O)Nc2nnc(SCc3ccccc3)s2)n1
4,-13,CCS(=O)(=O)N1Cc2ccccc2CC1C(=O)Nc1nnc(SCc2c(Cl)cccc2Cl)s1 (stereo not drawn)
10,-11,COC(=O)c1ccc(NC(=S)NCCCn2ccnc2)cc1
12,-3,Cc1ccoc1C(=O)NCCCNC(=O)c1occc1C
1,-50,Cc1ccc(-c2nnc(NCCCO)c3ccccc23)cc1
25,-2,Cc1ccc(C(=O)N2CCOCC2)cc1Cl
3,-16,CC(Sc1n[nH]c(-c2cccs2)n1)C(=O)Nc1ccc(C(N)=O)cc1 (stereo not drawn)
9,-3,COC(=O)/C(=C1\Oc2ccc(C(C)(C)C)cc2S1)C(F)(F)F

Going on with the list.
SMILES	OX1R antag-1	OX1R antag-2
O=C(N1CCN(c2ccccc2)CC1)C(F)(F)C(F)F	7	-2
COc1ccc(/C=N/N(C(C)=O)c2nc(-c3ccc(C)cc3)cs2)cc1	19	-9
CN1CCN(C(CNS(=O)(=O)c2ccc(Cl)cc2)c2cccnc2)CC1 (stereo not drawn)	17	-8
CCOC(=O)N1CCN(C(=O)CN(C)S(=O)(=O)c2ccc(Cl)cc2)CC1	19	-1
O=C(/C=C/c1ccco1)NC(=S)N1CCCCC1	6	3
CN(C)C(=O)C(NC(=O)c1ccccc1)=C(Cl)Cl	14	-15
COC(=O)C1=C(C(=O)OC)[C@@H]2N(C)c3ccccc3[C@@]23C[C@@H](CO)N=C3N1	11	12
O=C(NCc1ccco1)C1c2ccccc2Oc2ccccc21	14	-19
COc1cc2c(cc1OC)CN(S(=O)(=O)c1ccc3c(c1)OCCO3)CC2	3	-4
O=C(Cc1ccsc1)NCC(=O)Nc1ccc(F)c(F)c1	13	-17
CN1CCN(c2nc(-c3ccccn3)nc3ccccc23)CC1	17	-17
NC(=O)c1ccc(NC(=O)c2cc(S(=O)(=O)N3CCCCC3)ccc2N2CCOCC2)cc1	5	-17
CCc1cc(-c2n[nH]c(=S)n2C(C)c2ccccc2)cs1 (stereo not drawn)	10	-26
O=C(c1cccc(F)c1)N1CCN(C(=O)C(c2ccccc2)c2ccccc2)CC1	7	-20
CCCOC(=O)C1=C(C)NC2=C(C(=O)CCC2)C1c1cccs1 (stereo not drawn)	12	-22
CCc1cc(C(=O)N2CCCC(C(=O)c3ccc(OC)c(F)c3)C2)n(C)n1 (stereo not drawn)	9	-35
COc1ccc(OC)c(S(=O)(=O)N2Cc3ccccc3CC2C(=O)O)c1 (stereo not drawn)	4	-8
CC1CCN(S(=O)(=O)c2ccc3c(c2)c(=O)c(C(=O)NCc2cccs2)cn3C)CC1	6	-12
Cc1cccc(NC(=O)c2ccccc2-c2ccccc2)c1	34	-5
O=[N+]([O-])c1ccc(-c2nnc(-c3ccccc3)c(N3CCOCC3)n2)cc1	15	-15
Cc1ccc(C(C)NC(=O)Cc2cccs2)c(C)c1 (stereo not drawn)	10	-3
CC(=O)Oc1ccc(/C=C2/C(=O)N(c3ccccc3)N=C2C)cc1	4	3
CCOC(=O)Nc1sc(C)nc1-c1ccccc1	8	-8
CCNC(=S)N(CCc1c(C)[nH]c2ccc(C)cc12)Cc1cc(OC)c(OC)c(OC)c1	31	-14
CCCN(Cc1nnc(-c2ccccc2Cl)o1)C(=O)c1ccc(C)c(S(=O)(=O)N2CCOCC2)c1	10	-13
O=C1C=C(c2ccccc2C(F)(F)F)C[C@@H](c2ccc3c(c2)OCO3)C1	8	-11
CCOc1ccc(C(=O)NCC(=O)NCCCSc2ccccc2)cc1OCC	13	-40
COC(=O)CN1C(=O)CSc2ncccc21	22	-7
Fc1cccc(Cl)c1CSc1nnc2ccccn12	17	-2
COc1cccc(CNc2ccc3c(c2)nc(C)n3C)c1OC	14	-15
CC(=O)NC(=S)Nc1ccc([N+](=O)[O-])cc1C	-19	-12
CC(=O)O[C@H]1C(=O)[C@@]2(C)[C@H]([C@H](OC(=O)c3ccccc3)[C@]3(O)C[C@H](OC(=O)[C@H](O)[C@@H](NC(=O)c4ccccc4)c4ccccc4)C(C)=C1C3(C)C)[C@]1(OC(C)=O)CO[C@@H]1C[C@@H]2O	14	-19
Cc1nn(-c2ccccc2)c(Cl)c1/C=N/NC(=O)c1cccc(S(=O)(=O)N2CCCC2)c1	18	-4
CCOC(=O)CNC(=O)C(NC(=O)C1CCC(C)CC1)C(C)CC (stereo not drawn)	27	-17
OCCC1CN(Cc2cccn2-c2ncccn2)CCN1Cc1ccc(F)cc1 (stereo not drawn)	12	-3
O=C(Nc1ccccc1F)Nc1cc(S(=O)(=O)N2CCOCC2)ccc1N1CCCC1	15	-22
S=c1nccc(-c2cccs2)[nH]1	24	-2
CCN(c1ccccc1)c1cc(C)nc2ncnn12	9	12
CCC(=O)N(Cc1cc2cc(OC)ccc2[nH]c1=O)c1ccccc1C	4	-22
CN1C(=O)C2(Oc3ccccc3C3CC(c4ccccc4)=NN32)c2ccccc21 (stereo not drawn)	44	-23
Cc1nnc(NC(=O)CSc2ccc([N+](=O)[O-])cn2)s1	9	-8
CC(C)CCOc1cccc(OCC(=O)N(C)C2CCS(=O)(=O)C2)c1 (stereo not drawn)	11	-11
O=C(O)C1CCCCC1C(=O)Nc1cc(C(F)(F)F)ccc1Cl (stereo not drawn)	25	-14
O=C(NCc1ccccn1)c1cc2c(ccc3ccccc32)oc1=O	4	-24
CC(C(=O)Nc1ncn[nH]1)N1C(=O)c2ccccc2C1=O (stereo not drawn)	23	-15
CC(=O)c1ccc(N2CCN(C(=O)C3(S(=O)(=O)c4ccc(Cl)cc4)CC3)CC2)cc1	6	-13
Cc1cccc(N(C)C(=O)c2cnn(-c3ccccc3)c2C)c1	-9	-28
COc1ccc(OC)c(C(C)NC=O)c1 (stereo not drawn)	15	7
CCc1nc(SCC(=O)N2CCc3cc(OC)c(OC)cc3C2)c(C#N)cc1C	16	-12
NC1=NC[C@H](c2ccccc2)N1CCc1cccc(F)c1	46	-11

Following part.
SMILES	OX1R antag-1	OX1R antag-2
COCC(C)n1c(C)cc(C(=O)COC(=O)c2ccc(N3CCCC3=O)cc2)c1C (stereo not drawn)	2	-15
CCn1c(SCC(=O)Nc2cccc(NC(C)=O)c2)nc2c([nH]c3ccccc32)c1=O	6	3
CC(=O)N1CCN(c2ccc(Nc3ncnc4c3oc3ccccc34)cc2)CC1	32	-14
CCc1nnc(NC(=O)CC23CC4CC(CC(C4)C2)C3)s1	2	-14
Cc1cccc(C)c1OCC(C)N (stereo not drawn)	14	-10
N#Cc1ccc(CSc2nnc3[nH]c(=O)cc(N)n23)cc1	19	-21
O=C(NN1CC(C(=O)OCc2ccc(Br)cc2)CC1=O)c1ccccc1 (stereo not drawn)	11	-7
CCOc1cc(-c2noc(N)c2C#N)cc(OCC)c1OCC	23	-13
COc1ccc(-c2[nH]ncc2CNC(C)CCn2cccn2)cc1F (stereo not drawn)	18	-12
Cc1nnc2sc(SCc3ccccc3)nn2c1=O	7	0
Cc1ccc(NC(=O)C2CCCN(S(=O)(=O)c3ccc4[nH]c(=O)ccc4c3)C2)nc1 (stereo not drawn)	13	1

An excerpt of these results, as labelled records.
> COCC(C)n1c(C)cc(C(=O)COC(=O)c2ccc(N3CCCC3=O)cc2)c1C (stereo not drawn)
  OX1R antag-1: 2
  OX1R antag-2: -15
> CCn1c(SCC(=O)Nc2cccc(NC(C)=O)c2)nc2c([nH]c3ccccc32)c1=O
  OX1R antag-1: 6
  OX1R antag-2: 3

An excerpt, and most or all hits are left out here.
